# Source: PubChem BioAssay (National Center for Advancing Translational Sciences (NCATS))
# Cruzain Triton: qHTS Assay for Promiscuous and Specific Inhibitors of Cruzain (with detergent) | purified cruzain, Z-FR-AMC fluorescence, 0.01% Triton | Potency, µM, for the others: max response, negative = inhibition, hits mostly inhibitors | hit rate 0.43% among 200,000; active means well fitted curve in the direction sought with a large enough effect; inconclusive means small, poorly fitted or top-dose-only effect, or another doubt; inactive means no such curve, though single readings can be large; an effect the other way counts as inactive or inconclusive;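 further: plate controls were neutral wells for no effect and buffer without enzyme for full effect; nearly all actives have a fitted effect of over 40% in size; top concentration of the series not given in the record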
# Target sequence (P25779 123-467 limits assumed): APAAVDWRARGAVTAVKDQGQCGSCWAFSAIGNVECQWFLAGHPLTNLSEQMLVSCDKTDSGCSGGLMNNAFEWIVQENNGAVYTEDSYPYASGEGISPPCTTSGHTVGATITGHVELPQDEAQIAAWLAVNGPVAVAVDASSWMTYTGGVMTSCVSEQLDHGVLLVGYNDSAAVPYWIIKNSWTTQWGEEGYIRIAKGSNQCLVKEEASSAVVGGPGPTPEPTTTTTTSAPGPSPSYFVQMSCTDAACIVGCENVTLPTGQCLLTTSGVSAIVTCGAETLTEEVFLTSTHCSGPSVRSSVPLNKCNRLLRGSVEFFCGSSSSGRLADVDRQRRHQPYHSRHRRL
#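 Sodium acetate buffer (100 mM, pH 5.5) containing 5 mM DTT and 0.01% Triton X-100 hosted 1.5 nM cruzain and test compound for 15 min at room temperature. Cleavage of 2 uM Z-FR-AMC was then tracked by fluorescence.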
# SARS PLP yeast: qHTS of Yeast-based Assay for SARS-CoV PLP; S. cerevisiae expressing SARS-CoV PLpro, growth rescue; control for the full effect not named in the record; Potency, µM (doses to about 32.9 µM), for inactives: at the highest dose activity, positive = growth rescue; hit rate 0.19% among 330,000; AID 485353, 2010; further: 0% is about no effect; nearly all actives have a fitted effect of over 55% in size; growth read by luminescence after 48 h
# NS1 inh: qHTS Assay for Inhibitors of Influenza NS1 Protein Function. S. cerevisiae slowed by influenza A NS1, growth recovery by OD600. hit rate 0.4% among 270,000. Potency, µM (titrated, usually from 46.1 µM), inactives show at the highest dose activity, positive = more growth; further: actives are rising curves; nearly all actives have a fitted effect of over 50% in size
#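 OD600 was taken as the measure of yeast growth restored by compound in an NS1-expressing S. cerevisiae strain. Cells had been washed out of glucose medium and diluted 1:100 into galactose -URA medium, pH 6.0.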
# Marburg entry inh: qHTS for inhibitors of binding or entry into cells for Marburg Virus. Marburg virus pseudotyped entry inhibition, cell reporter; control for the full effect not named in the record; about a third of the inactives were read at about 46 µM. Potency, µM (series often up to 37.8 µM), inactives show top-dose activity change, negative = inhibition, most hits filed as inhibitors. hit rate 1.8% among 300,000. AID 540276, 2011; active = well fitted inhibition curve with a large enough effect; inconclusive = small, poorly fitted or top-dose-only effect, or effect the other way; inactive = flat fitted curve, though single readings scatter; tested in HEK293 cells; about a fifth of its hits are not listed in these tables; further: on the % scale 0 is the no-effect control and ±100 the full control effect; luciferase read-out
# RE007 growth inh: qHTS Assay for Inhibitors of the HIV-1 protein Vpr; hit rate 0.21% among 360,000; S. pombe RE007 Vpr strain, BacTiter-Glo ATP luminescence, 24 h; control for the full effect not named in the record; Potency, µM (top dose mostly 92.2 µM), for the others: top-dose activity change, negative = less growth; active = well fitted falling curve with a large enough effect; inconclusive = small, poorly fitted or top-dose-only effect; inactive = no such curve, though single readings can be large or run the other way;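 further: on the % scale 0 is the no-effect control and ±100 the full control effect; nearly all actives have a fitted effect of over 50% in size; the assay follows cell death caused by Vpr and the record does not say whether a fall means rescue or toxicity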
#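 Fission yeast RE007 carrying one integrated HIV-1 vpr copy, seeded at OD 0.01 in PMG+AL medium with 23 nL pinned compound. Grown 24 h at 30 degrees; viability read by BacTiter-Glo luminescence after 5 min.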
# 2A StopGo: High Throughput Screening for Foot and Mouth Disease Virus Antivirals. human cells with a luciferase reporter of 2A StopGo recoding; control for the full effect not named in the record. AID 1159524, 2015. hit rate 1.2% among 410,000. Potency, µM (top dose mostly 57.9 µM), for the others: at the top dose signal change, negative = less light; active = well fitted falling curve with a large enough effect; inconclusive = small, poorly fitted or top-dose-only effect; inactive = no such curve, though single readings can be large or run the other way; tested in HEK293T cells; further: on the % scale 0 is the no-effect control and ±100 the full control effect; nearly all actives have a fitted effect of over 45% in size; luciferase light after 4 h
# Cruzain noTriton: qHTS Assay for Promiscuous and Specific Inhibitors of Cruzain (without detergent) | Potency, µM, for inactives: max response, negative = inhibition, hits mostly inhibitors | Cruzipain (Trypanosoma cruzi), P25779 | purified cruzain, Z-FR-AMC fluorescence, no detergent | AID 1476, 2009 | hit rate 2.3% among 200,000; active means well fitted curve in the direction sought with a large enough effect; inconclusive means small, poorly fitted or top-dose-only effect, or another doubt; inactive means no such curve, though single readings can be large; an effect the other way counts as inactive or inconclusive;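 further: plate controls were enzyme without inhibitor for no effect and buffer without enzyme for full effect; nearly all actives have a fitted effect of over 40% in size; top concentration of the series not given in the record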
#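 Purified cruzain at 1.5 nM, pre-incubated 15 min with compound at room temperature in 100 mM sodium acetate pH 5.5, 5 mM DTT, 0.00005% Triton X-100. Reaction started with 2 uM Z-FR-AMC; AMC fluorescence increase over 60 s gives rate.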
# LASV entry inh: qHTS for Inhibitors of binding or entry into cells for Lassa Virus; Potency, µM (series often up to 37.9 µM), inactives show at the top dose activity change, negative = inhibition, most hits filed as inhibitors; Lassa virus pseudotype entry inhibition, cell reporter; control for the full effect not named in the record; AID 540256, 2011; hit rate 1.2% among 300,000; active means well fitted inhibition curve with a large enough effect; inconclusive means small, poorly fitted or top-dose-only effect, or effect the other way; inactive means flat fitted curve, though single readings scatter; tested in HEK293 cells; further: on the % scale 0 is the no-effect control and ±100 the full control effect; nearly all actives have a fitted effect of over 50% in size; luciferase read-out
# * hit, by the source's call; ? = inconclusive; . = not tested or not shown; & = joins results of further samples; [ ] = dose if it differs, or a comment. Unless noted, the call rests on the fitted dose curve; in most records, active means well fitted rising curve with a large enough effect; inconclusive means small, poorly fitted or top-dose-only effect; inactive means no such curve, though single readings can be large or run the other way. Potency means the concentration at half of the fitted maximal effect.
[1] CCOc1cc2c(cc1OCC)-n1cccc1C(c1cccc(F)c1F)NC2 (centres undefined)
[2] O=C(Nc1sc2c(c1C(=O)NCC(O)CO)CCCC2)c1ccccc1 (centres undefined)
[3] CCC(C)(C)NC(=O)C1CCCN(S(=O)(=O)c2ccc3c(c2)CC(C)N3C(=O)C2CC2)C1 (centres undefined)
[4] O=C1c2ccccc2C(=O)N1CC(O)CNc1ccc(Br)cc1 (centres undefined)
[5] COc1ccc(/C=N/NC(=O)c2cc(-c3ccccc3)nc3ccccc23)c(C(=O)O)c1OC
[6] CC(C)NC(=O)N1CCN(S(=O)(=O)c2ccc3c(ccn3C)c2)CC1
[7] COC(=O)c1nn(-c2ccc(OC)cc2)c(=O)c2c(N)sc(C)c12
[8] CC(C)(C)C1CCc2c(C(=O)NNC(=O)CCCC(=O)O)csc2C1 (centres undefined)
[9] CCS(=O)(=O)N1CCCC(C(=O)NCCOC)C1 (centres undefined)
[10] NC(=O)CC[C@@H]1NC(=O)[C@H](CO)NC(=O)c2cc([N+](=O)[O-])cc(I)c2NCCCC[C@@H](C(N)=O)NC(=O)[C@H](Cc2ccc(O)cc2)NC1=O
screen / no.	1	2	3	4	5	6	7	8	9	10
Cruzain Triton	.	.	.	-4.8%	.	-0.2%	-6.2%	-1.6%	1.4%	?
SARS PLP yeast	1%	.	-2%	-30%	-1%	.	-16%	1%	.	-2%
NS1 inh	-4%	.	-12%	1%	5%	.	11%	13%	.	4%
Marburg entry inh	?	?	-11%[46.1 µM]	18%	.	.	?	5%	.	-33%
RE007 growth inh	9%	-12%	-7%	-16%	-5%	.	-19%	8%	.	0%
2A StopGo	-24%	4%	4%	-10%	-7%	-7%	-14%	-2%	-10%	-12%
Cruzain noTriton	.	.	.	-1%	.	-4%	-10%	?	-12%	5%
LASV entry inh	-27%[46.1 µM]	0%[46.1 µM]	-17%[46.1 µM]	15%	.	5%[46.1 µM]	?	-1%	27%[46.1 µM]	0%

[11] CCOc1ccc(-c2nnc(SCC(=O)NCCc3ccc(OC)c(OC)c3)nc2-c2ccc(OCC)cc2)cc1
[12] O=C(CCc1nc(-c2ccccc2F)no1)NCCN1CCc2ccccc2C1
[13] CC(/C=C/c1ccccc1F)=N\NC(=O)c1ccccc1
[14] Cc1ccc(S(=O)(=O)N2CCOCC2)cc1C(=O)N1c2ccccc2Sc2ccccc21
[15] CCOc1ccc(CNC(=O)CCn2c(=O)c3cccn3c3ccc(F)cc32)cc1
[16] Cc1ccc(OCC(=O)Nc2c3c(nn2C(C)(C)C)CS(=O)(=O)C3)cc1
[17] Cc1ccc(Cn2c(S(=O)(=O)O)nc3ccccc32)cc1
[18] COc1ccc(NC(=O)c2ccc3snnc3c2)cc1
[19] CCc1ccc(NC(=O)CCC(=O)c2ccccc2)cc1
[20] NC(=O)c1nsc(C(=O)N(Cc2ccco2)C(C(=O)NCc2ccccc2)c2ccc(O)cc2)c1N (centres undefined)
screen / no.	11	12	13	14	15	16	17	18	19	20
Cruzain Triton	-6.1%	3.2%	.	3.0%	-1.5%	.	0.9%	-6.4%	.	.
SARS PLP yeast	.	-2%	0%	0%	.	1%	-2%	-21%	-2%	2%
NS1 inh	.	-3%	.	25%	.	-2%	4%	-4%	-31%	11%
Marburg entry inh	.	-12%[46.1 µM]	-13%[46.1 µM]	?	.	-2%	17%	6%[46.1 µM]	.	?
RE007 growth inh	.	0%	9%	-14%	.	-1%	8%	-6%	-10%	10%
2A StopGo	-6%	4%	74%[activator]	-27%	14%	-23%	-24%	3%	-7%	1%
Cruzain noTriton	-15%	6%	.	?	14%	.	-7%	-5%	.	.
LASV entry inh	-17%[46.1 µM]	9%	?	-19%	-2%[46.1 µM]	4%	?	-17%	.	?

[21] CCOC(=O)C1CCN(S(=O)(=O)c2c(C)n(C)c(=O)n(C)c2=O)CC1
[22] CCOC(=O)c1c(C)[nH]c(N=Nc2cccc(OC)c2)c1C
[23] O=C(N/N=C/c1cccnc1)c1ccco1
[24] CN(C)CCN(Cc1ccc(Cl)cc1)c1ccccn1
[25] Cc1ccc(N2CC(C(=O)Nc3ccc(S(=O)(=O)Nc4ncccn4)cc3)CC2=O)cc1C (centres undefined)
[26] CCSc1ncc(Cl)c(C(=O)Nc2c(C(=O)Nc3ccc(Cl)cc3)oc3ccccc23)n1
[27] CC(OC(=O)CC1CC2CCC1C2)C(=O)Nc1cccc(S(=O)(=O)N2CCOCC2)c1 (centres undefined)
[28] Cc1c(N(C(=O)c2ccccn2)C2(C(=O)NC3CCCC3)CCCCC2)c(=O)n(-c2ccccc2)n1C
[29] CSc1cccc(NC(C)C(=O)NCc2ccccc2)c1 (centres undefined)
[30] COCCN(C(=O)CSc1nnc2cc(C)c3ccccc3n12)c1c(N)n(Cc2ccccc2)c(=O)[nH]c1=O
screen / no.	21	22	23	24	25	26	27	28	29	30
Cruzain Triton	-1.6%	.	.	0.4%&3.5%	.	-2.2%	.	.	.	-1.3%
SARS PLP yeast	-2%	-29%	0%	-4%	2%	.	4%	3%	0%	7%
NS1 inh	-17%	.	2%	0%	-6%	.	.	.	.	-14%
Marburg entry inh	.	?	1%[46.1 µM]	?	-5%[46.1 µM]	?	27%[46.1 µM]	16%[46.1 µM]	-26%[46.1 µM]	?
RE007 growth inh	11%	-2%	-16%	-10%	-19%	.	-1%	0%	-17%	-3%
2A StopGo	-3%	0%	-5%	0%	13%	-17%	9%	-1%	-3%	-18%
Cruzain noTriton	-7%	.	.	-3%&-9%	.	-5%	.	.	.	10%
LASV entry inh	.	.	14%[46.1 µM]	?	.	1%[46.1 µM]	-30%	3%	-5%	?

# Entries shown so far that contain fluorine:
[1] CCOc1cc2c(cc1OCC)-n1cccc1C(c1cccc(F)c1F)NC2 (centres undefined)
[12] O=C(CCc1nc(-c2ccccc2F)no1)NCCN1CCc2ccccc2C1
[13] CC(/C=C/c1ccccc1F)=N\NC(=O)c1ccccc1
[15] CCOc1ccc(CNC(=O)CCn2c(=O)c3cccn3c3ccc(F)cc32)cc1
screen / no.	1	12	13	15
Cruzain Triton	.	3.2%	.	-1.5%
SARS PLP yeast	1%	-2%	0%	.
NS1 inh	-4%	-3%	.	.
Marburg entry inh	?	-12%[46.1 µM]	-13%[46.1 µM]	.
RE007 growth inh	9%	0%	9%	.
2A StopGo	-24%	4%	74%[activator]	14%
Cruzain noTriton	.	6%	.	14%
LASV entry inh	-27%[46.1 µM]	9%	?	-2%[46.1 µM]

# Continued:
[31] Cc1cccc(NC(=O)CN2C(=O)COc3ccc(Cl)cc32)c1
[32] Cn1ccnc1SCC(=O)Nc1cc(F)ccc1F
[33] O=C(c1ccccc1)N1N=C(c2ccccc2)CC1c1cccs1 (centres undefined)
[34] CC(=O)N1CC(C)Sc2ccc(S(=O)(=O)NC3CCCCC3C)cc21 (centres undefined)
[35] Cc1c(NC(=O)C(C)(C)Oc2ccc(Cl)cc2)cccc1-c1nc2ncccc2o1
[36] O=C(CSc1cccc2cccnc12)N1CCCC1
[37] CCc1ccc2nc(N(Cc3cccnc3)C(=O)c3ccc(C#N)cc3)sc2c1
[38] C/C(CCc1ccccc1)=N\NC(=O)c1ccc(CN2CCOCC2)cc1
[39] Cc1cc(C)cc(N(CC(=O)NCc2ccco2)C(=O)c2snc(C(N)=O)c2N)c1
[40] COCCNC(=S)N(CCO)Cc1cc2cc3c(cc2[nH]c1=O)OCO3
screen / no.	31	32	33	34	35	36	37	38	39	40
Cruzain Triton	-0.3%	.	.	.	-6.6%	0.6%	-3.4%	.	-7.5%	.
SARS PLP yeast	4%	-5%	-3%	3%	.	-7%	.	-4%	-1%	-2%
NS1 inh	-4%	2%	-5%	0%	.	-35%	.	3%	20%	6%
Marburg entry inh	26%	-2%[46.1 µM]	?	.	?	?	.	-8%[46.1 µM]	-15%	-2%
RE007 growth inh	-2%	0%	-2%	5%	.	45µM*	.	-2%	6%	0%
2A StopGo	1%	5%	-12%	-13%	?	?	15%	4%	.	2%
Cruzain noTriton	2%	.	.	.	7%	-5%	4%	.	5%	.
LASV entry inh	11%	11%[46.1 µM]	-3%[46.1 µM]	.	?	?	2%[46.1 µM]	0%[46.1 µM]	-19%	?

[41] COc1ccc(/C(O)=C2/C(=O)C(=O)N(c3ccccn3)C2c2ccc(OC)cc2)cc1 (centres undefined)
[42] Cc1ccccc1NS(=O)(=O)c1cc2c(cc1C)NC(=O)CO2
[43] COc1c(Cl)cc(-c2noc(C)c2C(=O)NCCc2ccc(C)cc2)cc1Cl
[44] CCOc1ccc2c(c1)c1nnc(SCC3CCCO3)nc1n2C (centres undefined)
[45] Cn1cccc1Cc1nnc(SCC(=O)NCc2ccccc2Cl)n1-c1ccc(F)cc1
[46] S=C(c1ccc(-c2ccccc2)cc1)N1CCOCC1
[47] COc1ccc(C2Nc3ccccc3C(=O)N2NS(=O)(=O)c2ccccc2)c(OC)c1 (centres undefined)
[48] Cc1ccc(S(=O)(=O)CC(=O)c2ccc(C)c([N+](=O)[O-])c2)cc1
screen / no.	41	42	43	44	45	46	47	48
Cruzain Triton	.	.	-12%	-1.3%	14%	.	.	-4.9%
SARS PLP yeast	0%	3%	-10%	4%	-2%	-4%	2%	2%
NS1 inh	8%	15%	0%	-3%	-28%	-20%	-33%	3%
Marburg entry inh	.	.	.	3%	2%	?	0%[46.1 µM]	0%
RE007 growth inh	-9%	13%	8%	-11%	-16%	-2%	-16%	6%
2A StopGo	-19%	-5%	-10%	1%	-1%	3%	11%	11%
Cruzain noTriton	.	.	5%	?	-3%	.	.	-2%
LASV entry inh	.	.	.	?	.	-2%[46.1 µM]	-15%	-21%
